# Screening data from PubChem BioAssay.
# hNpr1 antagonist – antagonists of human natriuretic peptide receptor Npr1; P16066; HEK293 hNpr1 GloSensor cGMP, ANP-stimulated luminescence; Potency, µM (top dose mostly 46.3 µM), without a hit: at the highest dose activity change, negative = inhibition, usual class: inhibitors; 1.6% of 76,000 active; active = well fitted inhibition curve with a large enough effect; inconclusive = small, poorly fitted or top-dose-only effect; inactive = no such curve, though single readings can be large or run the other way;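 also: nearly all actives have a fitted effect of over 60% in size; nearly all hits also lower the signal before the agonist is added; a reference antagonist and vehicle were the controls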
# Target sequence (P16066 whole entry, looked up): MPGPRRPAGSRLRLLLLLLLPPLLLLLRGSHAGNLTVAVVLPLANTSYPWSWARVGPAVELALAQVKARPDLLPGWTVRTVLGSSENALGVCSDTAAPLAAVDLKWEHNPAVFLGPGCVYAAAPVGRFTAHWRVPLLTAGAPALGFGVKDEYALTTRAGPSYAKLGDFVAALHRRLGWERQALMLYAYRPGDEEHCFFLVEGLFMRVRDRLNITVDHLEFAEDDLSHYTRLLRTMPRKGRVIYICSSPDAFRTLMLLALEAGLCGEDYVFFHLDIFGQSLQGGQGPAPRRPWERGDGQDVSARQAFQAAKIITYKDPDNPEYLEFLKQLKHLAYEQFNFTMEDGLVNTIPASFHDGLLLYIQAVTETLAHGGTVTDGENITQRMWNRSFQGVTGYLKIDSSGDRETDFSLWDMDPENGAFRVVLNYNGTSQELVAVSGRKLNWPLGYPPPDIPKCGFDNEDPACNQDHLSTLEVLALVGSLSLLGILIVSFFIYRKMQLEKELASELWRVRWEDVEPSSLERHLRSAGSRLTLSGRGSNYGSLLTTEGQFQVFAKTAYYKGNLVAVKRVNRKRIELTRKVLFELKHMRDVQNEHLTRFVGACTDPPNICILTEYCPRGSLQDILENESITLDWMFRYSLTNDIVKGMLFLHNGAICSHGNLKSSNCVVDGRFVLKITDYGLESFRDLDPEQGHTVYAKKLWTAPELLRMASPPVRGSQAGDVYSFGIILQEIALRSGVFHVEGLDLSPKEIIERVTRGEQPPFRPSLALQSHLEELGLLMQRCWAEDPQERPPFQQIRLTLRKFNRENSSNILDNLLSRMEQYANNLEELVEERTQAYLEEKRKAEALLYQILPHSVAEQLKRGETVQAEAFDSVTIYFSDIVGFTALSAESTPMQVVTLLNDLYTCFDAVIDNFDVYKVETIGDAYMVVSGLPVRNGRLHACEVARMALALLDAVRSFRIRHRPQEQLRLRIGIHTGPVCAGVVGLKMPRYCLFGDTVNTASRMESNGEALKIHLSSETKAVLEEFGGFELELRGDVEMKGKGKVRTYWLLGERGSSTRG
#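 HEK293 cells stably expressing human Npr1 and cGMP GloSensor pGS-40F, loaded 2 h with 2% GloSensor reagent, given compound 30 min at room temperature. Luminescence read before and 20 min after 0.1 nM hNppA.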
# An asterisk follows results filed as active; ? = inconclusive; [ ] = another dose, or the depositor's remark. % is scaled to controls: 0 for no effect and ±100 for the full control effect; potency is read from the fitted curve at half-maximal effect. These rows are one share of the data; the hit share may differ from the screen's.
# Start of the data: the first six entries (preview)
entry | hNpr1 antagonist | Compound
1 | -1% | CCCc1ccccc1OCC(=O)c1ccc2c(c1)N(CC(=O)N1CCOCC1)C(=O)CO2
2 | 3% | Cn1nc(C2CCN(C(=O)c3ccccc3)CC2)c2c1CCOC2
3 | 8% | O=C1CCN(C(=O)c2ccco2)CCOCCN1
4 | 6% | O=C([C@@H]1C[C@H](F)CN1C(=O)NCc1ccccc1)N1CCCCC1
5 | 4%[70.6 µM] | COc1ccccc1C(=O)NCc1ccnc2[nH]ccc12
6 | -2% | CCNc1cc(N2CCC(CCC(=O)N3CCOCC3)CC2)ncn1

# Main list, from the start:
entry | hNpr1 antagonist | Compound
1 | -1% | CCCc1ccccc1OCC(=O)c1ccc2c(c1)N(CC(=O)N1CCOCC1)C(=O)CO2
2 | 3% | Cn1nc(C2CCN(C(=O)c3ccccc3)CC2)c2c1CCOC2
3 | 8% | O=C1CCN(C(=O)c2ccco2)CCOCCN1
4 | 6% | O=C([C@@H]1C[C@H](F)CN1C(=O)NCc1ccccc1)N1CCCCC1
5 | 4%[70.6 µM] | COc1ccccc1C(=O)NCc1ccnc2[nH]ccc12
6 | -2% | CCNc1cc(N2CCC(CCC(=O)N3CCOCC3)CC2)ncn1
7 | 1% | C[C@@H](NC(=O)C[C@@H]1c2nc(NC(=O)CC(C)(C)C)sc2C[C@@H]2[C@](C)(CO)[C@H](O)CC[C@]21C)c1ccccc1
8 | -1% | CN(CC1CCOCC1)C(=O)c1ccc(F)c(F)c1
9 | -1% | COc1cccc(-c2noc(-c3ccc(-c4ccc(O)cc4)nc3)n2)c1OC
10 | -19%[70.6 µM] | O=C1c2cc(N3CCOCC3)nc(-c3ccccc3F)c2CN1CC(F)(F)F
11 | 4% | COc1ccc(C(=O)N2CC[C@H]3NC(=O)N(c4ccc(Oc5ccccc5)cc4)C(=O)[C@H]32)cc1
12 | -18% | Cc1nc(N2CCN(C(=O)c3ccc(C)s3)CC2)cc(C(F)(F)F)n1
13 | -13%[70.6 µM] | COc1ccccc1-c1cc2c(ccn2C)c(C(=O)NCc2cccnc2)n1
14 | -10%[70.6 µM] | CN1C(=O)[C@@H]2C[C@@H](CN2Cc2ccc(F)c(F)c2)Oc2ccccc21
15 | 1%[70.6 µM] | CN1CCN([C@H]2[C@@H]3OC[C@@H](O3)[C@@H](NC(=O)Nc3ccc(F)cc3)[C@@H]2O)CC1
16 | -1% | O=C(N[C@@H]1CCOC[C@H]1OCCO)C1CCN(Cc2ccco2)CC1
17 | -17%[70.6 µM] | O=C(NCCOc1ccccc1)c1cnc2n1CCN(Cc1ccccc1O)CC2
18 | 2% | O=C(c1c(F)cccc1Cl)N1C[C@@H](CO)[C@H](c2ccccn2)C1
19 | 3%[70.6 µM] | COc1ccc(CN2C(=O)CO[C@H]3CN(C(=O)COc4ccccc4)C[C@H]32)cc1
20 | 3% | NC(=O)[C@H](CC1CCCCC1)NC(=O)[C@@H]1CN(C(=O)Nc2ccccc2)CCN1C(=O)C1CCNCC1
21 | -1% | O=C(NCCCN1CCCC1=O)C1CCN(C(=O)N2CC3CC(C2)[C@H]2CCCC(=O)N2C3)CC1 (some centres undefined)
22 | ? | CC(=O)NC1(C)CN(Cc2ccc(-c3cccc(C(F)(F)F)c3)s2)C1
23 | -3% | CC(C)n1c(C2CCCN(C(=O)C3CC3)C2)nn(C)c1=O (centres undefined)
24 | -17% | N#Cc1cccc(OCc2nnc(C(=O)N3CCC[C@@H]3c3nc4ccccc4[nH]3)n2-c2ccccc2)c1
25 | 2% | O=C(Cc1cccn1-c1ccc(Cl)cc1)NC1CCCC1
26 | 2% | N[C@H](C(=O)N1CCC2(CC1)Nc1ccccc1NC2=O)c1ccccc1
27 | -1% | COCc1noc(CC2CCOC3(CCN(C(=O)c4cccc5[nH]ccc45)CC3)C2)n1 (centres undefined)
28 | -17% | O=C(NC1CCN(c2cc(-c3ccc(F)cc3)[nH]n2)C1)c1cc(F)ccc1Cl (centres undefined)
29 | -8% | O=C(Nc1cc(F)cc(F)c1)N1CC(c2noc(-c3ccncc3)n2)C1
30 | 1% | COCCOC1CCN(S(=O)(=O)Cc2ccccc2)CC1
31 | -4% | O=C(NC1CC1)[C@@H]1C[C@H](Oc2ccccc2)CN1C(=O)C1CCCC1
32 | 0% | COc1cc(CNC(=O)CCC2CCN(C(=O)c3ccccc3F)CC2)cc(OC)c1
33 | -1%[70.6 µM] | Cc1cc(C)c(CNC(=O)c2cc(-c3cnn(C)c3C)cc3c2OCCN3C)c(=O)[nH]1
34 | -1%[70.6 µM] | O=C1N[C@@H]2CCN(C(=O)c3ccc(-c4ccccc4)cc3)[C@@H]2C(=O)N1c1ccc(F)cc1
35 | -2% | CCCNC(=O)N1CCC(OCCOc2cccnc2)CC1
36 | -3% | CC(=O)Nc1ccc(CN2CCC[C@H]2c2nc(-c3ccc(N4CCC(C(N)=O)CC4)nc3)no2)cc1
37 | -1% | CCCn1ccnc1CN1CCCC12CCN(c1ccc(C(F)(F)F)cn1)CC2
38 | -1% | c1cn(CCc2noc(C3CCCO3)n2)c(-c2nc3c(s2)CCCC3)n1 (centres undefined)
39 | -18%[70.6 µM] | COc1cccc(CN2CCNc3cc(Nc4ccccc4)ncc3C2)c1
40 | 5%[70.6 µM] | O=C1N(C2CCCCC2)C[C@H]2CN(Cc3ncc[nH]3)CCN12
41 | -25%[70.6 µM] | CNC(=O)CCn1ncc2cc(OC3CCc4cccc(-c5cccc(F)c5)c43)ccc21 (centres undefined)
42 | 6%[70.6 µM] | O=C(NC[C@H]1O[C@@H](CO)[C@@H](O)[C@H]1N1CCN(c2ccccc2)CC1)c1cccs1
43 | -15%[70.6 µM] | C=CCN(C)C(=O)[C@@H](C)C1CC[C@@]2(C)Cc3sc(-c4cccnc4)nc3[C@@H](C)[C@@H]2[C@H]1O (some centres undefined)
44 | -7% | CCOC(=O)C1(C/C=C/c2ccccc2)CCCNC1 (centres undefined)
45 | 5% | COC(=O)CNC(=O)NCC(=O)N1CCCCCNC(=O)CC1c1ccccc1 (centres undefined)

# Single values from the results shown.
# Under hNpr1 antagonist, no. 37 has -1%
# Under hNpr1 antagonist, no. 32 has 0%
# Under hNpr1 antagonist, no. 38 has -1%
# Under hNpr1 antagonist, no. 40 has 5%[70.6 µM]
# Under hNpr1 antagonist, no. 44 has -7%
# Under hNpr1 antagonist, no. 42 has 6%[70.6 µM]
# Under hNpr1 antagonist, no. 36 has -3%

# The listing continues:
entry | hNpr1 antagonist | Compound
46 | -9% | COc1ccc(C(=O)NCC(=O)N2CCCCCNC(=O)CC2c2ccccc2)c(OC)n1 (centres undefined)
47 | -1% | COc1cc(NC(=O)O[C@@H]2CC[C@]3(C)C(CC[C@@H](O)[C@H]3CC(=O)N3CCCC3)[C@]2(C)CO)cc(OC)c1OC (some centres undefined)
48 | 4% | COCC(=O)Nc1ccc(-n2ccnc2-c2ccc(O)c(OC)c2)cc1C
49 | 3% | CSc1cccc(NC(=O)C2CCN(c3cnc4nc(C)c(C)nc4c3)CC2)c1
50 | 1% | C=CCNC(=O)CCc1nnc(-c2cccc(OC(C)C)c2)[nH]c1=O
51 | 0% | COc1ccc(N2CCN(C(=O)Cn3c(N4CCc5ccccc5C4)nc(C)cc3=O)CC2)cc1
52 | 1% | CCCn1cc(-c2ccncc2)cc1C(=O)NCc1cccc(F)c1
53 | -5% | CC(C)c1cc(CN2CCC(N3CCC(C(=O)NCc4ccccn4)CC3)CC2)[nH]n1
54 | 3%[70.6 µM] | CC(C)NC(=O)NC[C@H]1OC[C@@H](NCc2cccnc2)[C@@H]1O
55 | -7% | CC(Cn1cncn1)NC(=O)c1ccc(S(=O)(=O)NCCO)cc1 (centres undefined)
56 | -2% | Cn1cccc1C(=O)N[C@H]1C[C@@H](C(=O)O)N(C(=O)CCC(=O)N2C[C@@H](NC(=O)c3cccs3)C[C@H]2C(=O)O)C1
57 | 0% | CCC(CC)NC(=O)C1CCc2ncc(-c3ccsc3)n2C1 (centres undefined)
58 | -1% | CNC(=O)C1CN(S(=O)(=O)c2cccs2)CC12CCCCC2 (centres undefined)
59 | 2% | COc1cc(NC(=O)Cn2cccc2-c2nc(-c3ccc(OC)c(F)c3)no2)cc(OC)c1
60 | ? | Cc1ccc(NC(=O)Nc2ccc(C)n(CC(=O)NCCC(C)C)c2=O)cc1

# Shown with bars between the fields: entries from further up
entry | mol | hNpr1 antagonist
57 | CCC(CC)NC(=O)C1CCc2ncc(-c3ccsc3)n2C1 (centres undefined) | 0%
58 | CNC(=O)C1CN(S(=O)(=O)c2cccs2)CC12CCCCC2 (centres undefined) | -1%
59 | COc1cc(NC(=O)Cn2cccc2-c2nc(-c3ccc(OC)c(F)c3)no2)cc(OC)c1 | 2%
60 | Cc1ccc(NC(=O)Nc2ccc(C)n(CC(=O)NCCC(C)C)c2=O)cc1 | ?

# The listing continues.
entry | hNpr1 antagonist | Compound
61 | 6% | COc1cccc(CCC(=O)N2CCC3(CC2)CC(N(C(C)=O)C2CC2)CCO3)c1 (centres undefined)
62 | 1% | CCOc1ccccc1NC(=O)N1CC(c2nnc(-c3ccncc3)o2)C2(CCOCC2)C1 (centres undefined)
63 | 2% | CCC(=O)Nc1ccc(C2(C(=O)O)CCC2)cc1
64 | -8% | COc1ccccc1N1CCN(c2ncccc2CNC(=O)c2ccoc2)CC1
65 | 5% | O=C([C@@H]1C[C@H](F)CN1C(=O)NC1CCCCC1)N1CCc2ccccc2C1
66 | -7% | COc1cccc(CN2CCC3(CCC3OC)CC2)c1 (centres undefined)
67 | ? | COc1ccc(CC(=O)NC2CCN(c3cc(-c4ccc(Cl)cc4)[nH]n3)CC2)cc1
68 | 1% | O=C(CCCn1ccnc1)N1CCn2nc(C(O)Cc3ccccc3)cc2C1 (centres undefined)
69 | -30%[70.6 µM] | O=C(NCC1CCOCC1)[C@@H]1C[C@@H](c2ccc(F)cc2)N(CCOc2ccccc2)C1
70 | 5%[70.6 µM] | C[C@@H](NC(=O)Cc1ccccc1)c1onc(-c2cccnc2)c1C(=O)O
71 | -8% | O=C(Nc1ccccc1)C1(CCO)CCN(Cc2ccccc2)C1 (centres undefined)
72 | 5% | Cc1ccc(C)c(-n2nc(-c3c(C)nc4scc(CC(=O)NC(C)C(C)C)n4c3=O)cc2C)c1 (centres undefined)

# An excerpt from above in order of molecular weight, descending:
entry | hNpr1 antagonist | Compound
21 | -1% | O=C(NCCCN1CCCC1=O)C1CCN(C(=O)N2CC3CC(C2)[C@H]2CCCC(=O)N2C3)CC1 (some centres undefined)
55 | -7% | CC(Cn1cncn1)NC(=O)c1ccc(S(=O)(=O)NCCO)cc1 (centres undefined)
3 | 8% | O=C1CCN(C(=O)c2ccco2)CCOCCN1
